TRPML1 agonist – human mucolipin-1 channel agonism; TRPML1-expressing cells, Ca2+ dye fluorescence, FDSS; host cell line not named in the record; reference of the full effect not given here; activation, % (concentration not given with the values); 410,000 compounds, 0.12% hits; in the data active = activation above about 50%; inconclusive = about 30% to 50%; inactive = below about 30%; also: 0% is about no effect; the text of the record puts the active cut at 80%
Target sequence (Q9GZU1 whole entry, looked up): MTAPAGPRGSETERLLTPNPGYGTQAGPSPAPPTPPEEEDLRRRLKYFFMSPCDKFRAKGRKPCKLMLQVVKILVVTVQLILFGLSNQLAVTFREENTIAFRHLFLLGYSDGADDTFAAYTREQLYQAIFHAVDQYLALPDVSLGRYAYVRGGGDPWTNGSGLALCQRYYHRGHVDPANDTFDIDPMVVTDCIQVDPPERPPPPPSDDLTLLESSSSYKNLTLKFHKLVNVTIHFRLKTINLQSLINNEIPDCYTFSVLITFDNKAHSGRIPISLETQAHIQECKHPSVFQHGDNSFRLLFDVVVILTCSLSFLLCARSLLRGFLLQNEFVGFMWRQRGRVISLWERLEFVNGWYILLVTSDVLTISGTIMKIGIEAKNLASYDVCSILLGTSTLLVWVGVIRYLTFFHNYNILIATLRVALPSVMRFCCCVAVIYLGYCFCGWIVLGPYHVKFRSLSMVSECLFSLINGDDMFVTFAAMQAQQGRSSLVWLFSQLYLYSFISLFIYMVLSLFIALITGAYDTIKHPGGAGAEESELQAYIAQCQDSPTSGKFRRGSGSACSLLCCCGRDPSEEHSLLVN
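In this qHTS format, compounds were pin-transferred onto Ca8-dye-loaded TRPML1-DL cells induced with Tet overnight, and intracellular Ca2+ fluorescence was recorded kinetically for 110 s after a 10 s baseline. A subsequent 4uM final 54-4 (EC80) addition followed by a second 110 s read served as the antagonist phase.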
TRPML1 blocker – inhibitors of human TRPML1 channel; Q9GZU1; TRPML1-inducible cells, Ca2+ dye fluorescence, FDSS; active compounds read low; inhibition of EC80 agonist-evoked calcium signal; activity change, negative = inhibition, % (test concentration not listed); 390,000 compounds, 0.02% hits; AID 624415; in the data active means activity change below about -50%; inconclusive means about -30% to -50%; inactive means above about -30%;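 also: stimulus is agonist 54-4 at its EC80 concentration; % is scaled to controls: 0 for no effect and ±100 for the full control effect; compound concentration not given in the record; the text of the record puts the active cut at -80%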
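Calcium fluorescence in TRPML1-DL cells induced overnight with Tet: a 110 s read after compound pin addition, then a 110 s antagonist read after challenge with 54-4 at 4 uM final (EC80).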
Six1-Eya2 blk – Six1/Eya2 interaction inhibition; Q15475+O00167; AlphaScreen GST-Six1/His-Eya2 binding, biochemical; active compounds read low; control for the full effect not named in the record; activity change, % (no concentration beside the values); 360,000 compounds, 0.56% hits; AID 651725; in the data active = activity change below about -65%; inconclusive = about -30% to -65%; inactive = above about -30%; also: % is scaled to controls: 0 for no effect and ±100 for the full control effect
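Six1/Eya2 binding was read as AlphaScreen signal after compounds were pinned into GST-Six1 plus His-tagged Eya2 (5X stock 250/500 nM) in pH 8.0 Tris/NaCl/TCEP buffer, beads added, then incubated 1 h, 37 C, dark.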
CtBP-E1A inh – blocks the CtBP interaction with E1A. activity change, % (no concentration beside the values). AlphaScreen GST-E1A/His-CtBP binding, 1536-well; active compounds read low; control for the full effect not named in the record. AID 651724. 340,000 compounds, 0.49% hits; in the data active means activity change below about -65%; inconclusive means about -30% to -65%; inactive means above about -30%; also: % is scaled to controls: 0 for no effect and ±100 for the full control effect
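Steps: dispense buffer (Tris pH 8.0, NaCl 300 mM, TCEP 1 mM, BSA, Tween 20); add 5X protein mix (GST-E1A, His-CtBP, 125 nM each); pin 23 nL compound; 2 h at 37 °C, dark; add 5X beads (50 ug/mL); 1 h; read.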
PINK1 modulator – changes PINK1 expression. Potency, µM (doses to about 76.6 µM), inactives show at the highest dose activation (PINK1 increase), usual class: activators. PINK1 immunofluorescence, high-content cytometry, 24 h. 410,000 compounds, 0.2% hits. AID 624263; active = well fitted activation curve with a large enough effect; inconclusive = small, poorly fitted or top-dose-only effect; inactive = flat fitted curve, though single readings scatter; cell line not stated here;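 also: potency is read from the fitted curve at half-maximal effect; % of control where 0% means no effect; nearly all actives have a fitted effect of over 65% in size; a mitochondrial uncoupler was the plate control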
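Stable cell line treated 24 h with compounds at 5 concentrations (CCCP controls), then fixed and immunostained for PINK1 plus nuclear and cell stains; PINK1 immunofluorescence quantified by laser-scanning microplate cytometry.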
D2 ag – agonists of human D2 dopamine receptor (beta-arrestin); P14416; DiscoveRx PathHunter D2 beta-arrestin, luminescence, 90 min; 100% = 57 uM dopamine signal; activation, % (no concentration beside the values); 360,000 compounds, 0.084% hits; AID 624465; in the data active = activation above about 40%; inconclusive = about 15% to 40%; inactive = below about 15%; also: compound concentration not given in the record; the text of the record calls up to 30% inactive
Target sequence (P14416 whole entry, looked up): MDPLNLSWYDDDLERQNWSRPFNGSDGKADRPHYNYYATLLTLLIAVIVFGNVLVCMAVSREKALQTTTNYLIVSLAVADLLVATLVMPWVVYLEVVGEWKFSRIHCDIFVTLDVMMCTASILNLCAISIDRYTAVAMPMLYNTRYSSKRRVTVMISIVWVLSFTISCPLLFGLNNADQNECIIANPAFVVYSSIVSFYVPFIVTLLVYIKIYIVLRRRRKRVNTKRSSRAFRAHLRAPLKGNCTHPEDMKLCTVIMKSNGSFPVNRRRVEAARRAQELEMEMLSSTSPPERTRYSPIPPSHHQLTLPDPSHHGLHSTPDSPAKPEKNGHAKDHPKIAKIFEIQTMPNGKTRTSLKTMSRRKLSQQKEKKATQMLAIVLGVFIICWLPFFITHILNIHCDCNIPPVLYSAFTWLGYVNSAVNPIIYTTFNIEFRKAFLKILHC
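DiscoveRx PathHunter D2 beta-arrestin cells (2,100/well) attached overnight, then compound-stimulated 90 min at 37 C in HBSS/10 mM HEPES/0.1% Tween-20 buffer; beta-galactosidase complementation read by luminescence after 1 h at ambient temperature. Dopamine 57 uM final (EC100) as control.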
Numbers without * were called inactive; ? = inconclusive; . = no result given; [ ] = another dose, or the depositor's remark.

Values run as follows: TRPML1 agonist, TRPML1 blocker, Six1-Eya2 blk, CtBP-E1A inh, PINK1 modulator, D2 ag
O=C(Nc1ccc(NC(=S)NC(=O)c2ccccc2Cl)cc1)c1cccc(Cl)c1
→ -1.0, 33, -14, -6, 2.2%, -1.4
Cc1nn(CCOc2ccccc2)c(=O)n1-c1c(F)cccc1F
→ -1.3, 6, 3, 5, -0.6%, 0.2
CCSc1ccc(-c2ccco2)nn1
→ 0.2, 14, 26, -7, -0.6%, -3.4
O=C(CCC(F)(F)F)N1CCCC(CO)(CCc2ccccc2)C1 (centres undefined)
→ 0.3, 5, 3, 4, 3.1%, -3.6
CCOC(=O)c1c(NC(=O)COC(=O)CC(NC(C)=O)c2ccccc2)sc(C(=O)NC)c1C (centres undefined)
→ -0.9, 11, -5, 15, -1.3%, -0.8
CC1(C)CC2CC(C)(CN2C(=O)COC(=O)c2cccc(O)c2)C1 (centres undefined)
→ 0.8, 22, -2, -4, 0.2%, -1.4
CC1CCCC(C)N1CCCNC(=O)c1cc2c(s1)-c1ccccc1OC2 (centres undefined)
→ 0.1, -3, -5, 0, -1.8%, -7.4
O=C(Nc1ccccc1OCc1cc(=O)n2ccccc2n1)Nc1ccccc1C(F)(F)F
→ 1.1, -17, ., ., 14%, .
CCCCNC(=O)c1cc(C)nc2ccccc12
→ 0.8, 3, 7, 3, -0.7%, -4.1
CN(C)S(=O)(=O)c1cccc(NC(=O)CSc2nncn2-c2ccccc2)c1
→ 0.1, 30, 3, 0, 2.5%, -2.8
CCOc1ccc2c(c1)C(=NNC(=O)c1ccccn1)c1cc(OCC)ccc1-2
→ ., ., 4, -10, 0.0%, -0.5
Cc1cc(C)c2cc(CN(Cc3cccnc3)C(=O)c3ccc(F)cc3)c(Cl)nc2c1
→ -0.1, -18, -11, 0, 0.2%[38.3 µM], -0.9
O=C(Nc1ccc(Cl)cc1Cl)c1cccc(N2C(=O)C=CC2=O)c1
→ ., ., 6, -25, -0.6%, -10
COc1ccc(C2N=C(c3ccccc3)NC(c3ccccc3)=N2)cc1
→ 5.7, 2, 0, 0, -0.5%[38.3 µM], -0.3
CCOc1ccc(CNC(=O)c2ccccc2NC(=O)C2=CSCCO2)cc1
→ -0.7, 22, -3, 1, 1.3%, -11
Fc1ccc(NCc2nnc3n2CCCCC3)cc1
→ -0.2, -9, 2, 5, 1.3%, -5.7
CCC12CN3CC(C)(CN(C1)C3c1ccccc1C)C2=O (centres undefined)
→ -0.5, 6, ., ., 0.1%, .
CN(CC(=O)NCc1ccc(F)cc1)S(=O)(=O)c1ccc2c(c1)c(=O)n(C)c(=O)n2C
→ 0.5, 6, -6, -13, -2.1%, -0.7
COc1ccc(NC(=S)NNS(=O)(=O)c2ccc3ccccc3c2)c(OC)c1
→ -0.6, -11, 2, 2, 2.9%, -0.5
CCN(CC)CC(=O)N1CCCC(N2CCN(c3cccc(C(F)(F)F)c3)CC2)C1 (centres undefined)
→ 0.0, 8, -3, 7, 1.9%, -6.9
COc1ccc(N2CCN(C(=O)C(Cc3ccccc3)n3cccc3)CC2)cc1 (centres undefined)
→ 0.2, 22, ?, ?, 0.9%, -1.2
COc1cc(C)nc(SCC(N)=O)n1
→ 3.6, -4, -1, -2, 0.5%, -1.6
Cc1nn(C)cc1CN(C)Cc1c(C(=O)N(C)Cc2ccccc2)nc2ccccn12
→ 1.0, -25, 6, 0, 1.1%, -2.9
N/C(=N\OC(=O)c1ccc(Cl)cc1Cl)c1ccccc1
→ 0.5, -4, 67, 98, 4.5%[38.3 µM], ?
COc1ccccc1N1CCN(/N=C/C=C\c2ccco2)CC1
→ 1.5, 24, ?, -22, -0.5%, -3.1
COc1ccc(N/N=C(\C#N)C(N)=O)cc1
→ 2.0, 17, 3, -10, 0.4%, -3.1
COC(=O)c1cc(=O)c2ccc(OC)cc2o1
→ -0.6, 2, 4, 5, -1.3%[38.3 µM], -1.3
Cc1ccc(OCc2ccc(C(=O)N3CCCC3)o2)cc1C
→ 3.2, 15, -7, 4, -1.7%, ?
Cc1onc(-c2ccccc2Cl)c1C(=O)Nc1nc2c(s1)CCCC2
→ -0.5, -8, 0, -9, 1.8%, -3.2
CCCC1Cc2[nH]c(=O)c(C#N)cc2CO1 (centres undefined)
→ -0.2, 13, 8, -70*, -2.1%, -2.2
Cc1cc(NC(=O)c2ccc(Cl)cc2Cl)no1
→ -0.2, -1, 0, -10, 1.6%, -7.6
O=C(Nc1c(F)cccc1F)c1ccc2c(c1)CCN2S(=O)(=O)c1ccccc1
→ -0.7, 9, -7, -9, -0.7%, 1.8
CC1=C(C(=O)OCc2ccccc2)C(c2ccc(C#N)cc2)NC(=O)N1CCCC(=O)O (centres undefined)
→ -0.7, 2, -5, 1, 3.0%, -3.3
O=C1CCCN2N=C(SCC(=O)Nc3nccs3)SC2=N1
→ 0.1, 5, -11, 9, 6.5%, -2.8
Cc1ccc(S(=O)(=O)N2CCCC(C(=O)NCc3cccnc3)C2)cc1Cl (centres undefined)
→ 1.1, 17, 1, 0, 0.6%, 0.4
COc1ccc(NC(=O)CC(NCCc2ccccc2)C(=O)O)c(OC)c1 (centres undefined)
→ -0.4, 10, 7, 1, -1.3%, -1.9
CC1(C)N([O-])C2=C(CCCC2)[N+]1=O
→ 0.4, 19, 11, 0, -0.1%, -4.5
CCN(C(=O)CSc1nnc(-c2c[nH]c3ccccc23)o1)C1CCS(=O)(=O)C1 (centres undefined)
→ 0.3, 9, -10, ., -1.9%, -0.6
CCc1ccc(NC(=O)CCC(=O)c2ccc(C)cc2)cc1
→ -0.1, 8, 2, -20, 0.8%, -5.2
CCc1noc(C)c1C(=O)NNC(=O)c1ccccc1
→ 0.4, -15, 2, -18, -0.7%, -3.0
COc1ccccc1CNC(=O)c1ccc(CS(=O)(=O)c2ccccc2OC)o1
→ 0.1, 22, -2, 3, -1.0%, -3.0
CCCCNC(=O)CCC1N=C2c3ccccc3N=C(SCC(=O)NCCc3ccc(OC)c(OC)c3)N2C1=O (centres undefined)
→ -1.0, -7, ., ., -0.3%, .
O=C(CN1C(=O)CCC1=O)Nc1nc(-c2ccc3ccccc3c2)cs1
→ 0.0, -20, -6, 2, 3.8%, -5.1
CC12CN(NC(=O)c3ccccc3F)C3(C#N)CC1CCC23C (centres undefined)
→ -0.7, 12, 6, 19, 0.2%, -4.0
CCOc1ccc(C(=O)NC(=S)NCc2cccnc2)cc1
→ 0.6, 28, 1, 10, 1.8%, -0.6
Cc1cccc(Nc2ncccc2C(=O)O)c1C
→ 0.5, -1, 0, -12, -0.1%, -2.5
COc1cccc(-c2cc(C(F)(F)F)nc(NCc3ccc(F)cc3)n2)c1
→ 4.1, 36, ., ., ?, .
COc1cc(-c2nc3ccccc3s2)ccc1O
→ 1.1, 20, -1, -10, -7.8%[38.3 µM], -0.4
CNC(=O)[C@H](C)[C@@H]1C[C@@]1(C)[C@@H](NC(=O)OCc1ccccc1)c1ccccc1
→ -0.6, 11, 2, 4, -0.4%, -1.5
COCCN1C(=O)C(=O)/C(=C(/O)c2ccc(S(=O)(=O)N3CCOCC3)cc2)C1c1cccc(OC)c1 (centres undefined)
→ -0.2, -4, 5, 2, 0.5%, -1.4
COc1ccc(S(=O)(=O)N2CCOC23CCN(S(=O)(=O)c2ccc(F)cc2)CC3)cc1
→ 0.7, 32, 3, 11, -0.1%, -2.2
CC(=O)OC1CC2(C)/C(=N\O)CCC2C2CCc3cc(O)ccc3C12 (centres undefined)
→ ., ., 3, 3, 4.7%, 41*
O=C(Nc1cccc(C(F)(F)F)c1)c1cccc2c(-c3cccnc3)coc12
→ -0.5, ., 0, 0, 3.8%, ?
COc1ccccc1OCCSc1nc2ccccc2n1CC(N)=O
→ -0.5, -2, 4, 13, 3.1%, -0.7
O=C(NCCCc1ccccc1)C1CC1
→ 0.5, -12, 1, -1, -0.9%, -3.3
CCc1c(C)sc(NC(=O)C2c3ccccc3Oc3ccccc32)c1C(=O)OC(C)C
→ -0.2, 1, ., ., 4.6%, .
CCOC(=O)CSC1=C(C#N)C(c2ccc(OC)cc2)C2=C(CC(C)(C)CC2=O)N1 (centres undefined)
→ 2.1, -5, -3, -2, -1.2%, -1.6
CCOC(=O)CNc1nc(Cl)nc(Nc2ccccc2)n1
→ 0.7, 24, 5, 5, -0.6%, 1.0
O=C(Oc1ccc(O)cc1)C12CC3CC(CC(C3)C1)C2
→ 2.0, 21, 2, -7, 2.4%, -3.4
Cc1cc(C(=O)Nc2ccccc2C)c2ccccc2n1
→ -0.4, -13, 0, -4, -0.2%, -4.0

Reprinted at random: two compounds from above.
Values run as follows: TRPML1 agonist, TRPML1 blocker, Six1-Eya2 blk, CtBP-E1A inh, PINK1 modulator, D2 ag
CCc1c(C)sc(NC(=O)C2c3ccccc3Oc3ccccc32)c1C(=O)OC(C)C
→ -0.2, 1, ., ., 4.6%, .
CC1=C(C(=O)OCc2ccccc2)C(c2ccc(C#N)cc2)NC(=O)N1CCCC(=O)O (centres undefined)
→ -0.7, 2, -5, 1, 3.0%, -3.3

The listing continues:
Values run as follows: TRPML1 agonist, TRPML1 blocker, Six1-Eya2 blk, CtBP-E1A inh, PINK1 modulator, D2 ag
O=C(NNC(=O)c1ccc2ccccc2c1)c1cccc(F)c1
→ 0.3, -19, 2, 8, 5.4%, 6.0
CN1CCN(c2ccc(NC(=O)c3cc4ccccc4o3)cc2)CC1
→ -0.1, 14, -3, ., -1.2%, -3.6
CCOC(=O)/C(=C/Nc1ccc(F)cc1)[N+](=O)[O-]
→ -0.1, -2, -27, ., 1.8%, -7.5
CCCc1cc(Nc2ccccc2)n2ncnc2n1
→ 0.1, 0, 1, ., 0.0%, -3.7
CC(=O)c1cccc(NC(=O)Cc2noc3ccccc23)c1
→ 0.4, -26, ., ., -0.9%, .
O=C(O)CSc1nc2ccc(C(=O)c3ccccc3)cc2[nH]1
→ 0.4, 7, -12, -12, 2.4%, 1.3
O=c1[nH]c(COc2ccc(Cl)cc2Br)nc2ccccc12
→ 1.4, -3, -7, -1, -2.0%, -4.3
C/C(=N/OCC(=O)NCCCCCCNC(=O)CO/N=C(/C)c1cccs1)c1cccs1
→ 2.6, -3, -19, -2, 2.1%, -2.4
CC(C)CCn1nnc2sc(-c3ccccc3)cc2c1=O
→ 1.9, ?, ., ., 6.3%, .

Entries above printed as active in CtBP-E1A inh.
mol	TRPML1 blocker	Six1-Eya2 blk	CtBP-E1A inh	PINK1 modulator	D2 ag
CCCC1Cc2[nH]c(=O)c(C#N)cc2CO1 (centres undefined)	13	8	-70*	-2.1%	-2.2

Assay outcomes deposited in PubChem by National Center for Advancing Translational Sciences (NCATS).
